Screening results (PubChem)
AID504770: growth inhibition of E. coli YBA685, primary screen, V. cholerae RctB inhibitors. E. coli YBA685 rctB-dependent plasmid, OD600 growth, 3 h; hits give low values. z-score (test concentration not listed). hit rate 0.27% among 130,000. AID 504770, 2011;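 active = z-score under -2 on both plates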;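 note: wells of about 30 µL received 100 nL stock; score is relative to mean and SD of the test wells; the first replicate is given; strong numbers were not always called active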
CapD inh: Bacillus anthracis CapD inhibitors, primary screen, biochemical, fluorescence intensity; purified CapD enzyme, fluorescence intensity read-out; hits give low values; some hits fall short of the stated cut; AID 492967, 2010; z-score (no concentration beside the values); CapD gamma-glutamyltranspeptidase (Bacillus anthracis Ames Ancestor); hit rate 0.23% among 140,000;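 active = z-score under -4 in either of two replicates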;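 note: stock transfer was 100 nL into about 40 µL; score is relative to mean and spread of the plate; one replicate is shown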
* = called active by the depositor; nt = not tested or not shown; & = joins results of further samples. Only part of the results is shown (hit frequency here may not be typical).

The line under a structure holds: CapD inh | AID504770
O=C(ON1C(=O)c2cccc3cccc(c23)C1=O)c1ccco1
 : 17 | 0.45
CCc1ccc(NC(=O)C2=CC=CN3CCS(=O)(=O)N=C23)cc1
 : nt | 0.15
Cc1cc(C)nc(SCCS(=O)(=O)Cc2ccc(Cl)cc2)n1
 : 0.15 | -0.55
COc1ccc(C2C(C#N)=C(N)N3C(=C2C#N)Sc2ccccc23)cc1 (stereo not given)
 : 0.61 | nt
CCCCS(=O)(=O)C1CCS(=O)(=O)C1 (stereo not given)
 : 0.72 | -1
Cn1c(SCc2cc(=O)n3ccsc3n2)nnc1-c1ccco1
 : -2 | 1.6
CC(C)NC(=O)C(C#N)(Cc1ccc(C#N)cc1)Cc1ccc(C#N)cc1
 : nt | 0.25
CCN1CCCc2cc(O)ccc21
 : -0.6 | 0.15
COC(=O)c1ccc(CN(C(C)=O)c2ccccc2)o1
 : 0.17 | 2
CC(=O)N1CCN(S(=O)(=O)c2cccc(C(=O)OCc3cc(=O)n4cc(Br)ccc4n3)c2)CC1
 : nt | 1.3
CCCCCCCCCC(=O)Nc1nc2c(s1)Cc1ccccc1-2
 : -0.075 | nt
Cc1cc(SCC(=O)N2CCCC2)n2c(nc3ccccc32)c1C#N
 : nt | -0.85
O=C(CCc1c[nH]c2ccccc12)Nn1c(SCC(=O)c2ccc(F)cc2)nc2ccccc2c1=O
 : -0.53 | nt
O=C(NCCC1=CCCCC1)Nc1ccc(Cl)cc1
 : 0.1 | -0.05
O=C(CSc1nnc2n1CCCCC2)NCc1ccco1
 : nt | -1.1
CNc1ccccc1C(=O)NN
 : 71 | nt
COC(=O)c1ccc2c(=O)n(CC3CCCO3)c(SCC(=O)NCCc3ccc(S(N)(=O)=O)cc3)nc2c1 (stereo not given)
 : 4.7 | nt
Nc1nc2c(ncn2COCCO)c(=O)[nH]1
 : -0.35&2.3 | -0.2
c1ccc2c(c1)-c1ccccc1C2C1CCNCC1
 : -0.43 | -0.15
COc1ccc2c(CN3CC=C(c4ccccc4)CC3)cc(=O)oc2c1
 : nt | -0.05
Cc1cccc(-c2nnc(SCN3C(=O)c4ccccc4C3=O)n2C)c1
 : nt | 0.4
CCOC(=O)c1cnn2c1nc(Sc1cccc(OC)c1)c1ccccc12
 : 3.8 | 0.75
Cc1cc(I)ccc1NC(=O)Nc1ccccc1
 : -0.29 | -0.95
COc1ccc(CCCOC(=O)NCCc2ccc(OC)cc2)cc1
 : 0.53 | nt
CCCS(=O)(=O)c1c(S(=O)(=O)CCC)c2ccccn2c1C(=O)c1ccc(C)cc1
 : -0.43 | nt
O=C(Nc1ccc(F)cc1)OC1CN2CCC1CC2 (stereo not given)
 : -0.51 | -0.1
O=C(Nc1ccccc1C(=O)NCc1cccnc1)c1ccco1
 : 1.1 | -0.15
Cc1nn(-c2ccc(F)cc2)c(Cl)c1/C=C/C(=O)OCC(=O)Nc1c(C#N)oc2ccccc12
 : nt | -0.35
OCCN1N=C2c3ccccc3CCC2C1c1ccccc1Cl (stereo not given)
 : 23 | 1.9
O=C(CSC(=O)c1ccccc1)Nc1ccc(Cl)cn1
 : 0.41 | -0.15
COc1ccc(-c2cc(CC(C)C)nc(N)c2C#N)cc1
 : 17 | 0.55
CC(C)CCNC(=S)Nc1ccccn1
 : 0.1 | -1.1
CC1CCN(S(=O)(=O)c2ccc3[nH]cc(C(=O)N(Cc4ccco4)CC4CCCO4)c(=O)c3c2)CC1 (stereo not given)
 : 2.9 | nt
CCOC(=O)CC(=O)CSc1nc2cc(C(=O)OC)ccc2c(=O)n1CCc1ccc(S(N)(=O)=O)cc1
 : 2.2 | nt
CCC(C)(C)c1ccc(S(=O)(=O)NC(C)c2ccccc2)cc1 (stereo not given)
 : -0.51 | nt
CCOc1ccc(/C=N/NC(=O)/C=C/c2ccc3c(c2)OCO3)cc1
 : 2.6 | nt
Cc1nnc(NCC(C)(C)C)s1
 : 0.47 | -0.45
COc1cccc(NS(=O)(=O)c2ccc(-n3cccn3)cc2)c1
 : -0.18 | 0.65
CN1CCN(c2cc(-c3ccncc3)nc3ccccc23)CC1
 : 2.9 | 1.4
CCOC(=O)C1=C(C)NC2=C(C(=O)CC(c3ccc(Cl)cc3)C2)C1c1ccc(OC)cc1OC (stereo not given)
 : 13 | nt
N/C(=N\S(=O)(=O)c1cc(Cl)c(Oc2ccc([N+](=O)[O-])cc2Cl)c(Cl)c1)c1ccc(Cl)cc1
 : -0.28 | nt
O=S(=O)(N(c1ccc(Br)cc1)C(F)F)C(F)(F)F
 : nt | -0.55
C1=CCC(CNCCCn2ccnc2)CC1 (stereo not given)
 : nt | -0.15
COc1cc(C(=O)c2ccccc2C#N)cc(OC)c1OC
 : -0.17 | nt
Cc1ccc(SCC(=O)OCc2nc3ccccc3c(=O)n2CC#N)cc1
 : nt | -0.7
Cc1[nH]c2ccc(-c3nnc(SCc4ccc(F)cc4)o3)cc2c1C
 : nt | -0.4
O=C(NCc1ccccc1)N1CCCCC1
 : 0.005 | 0
COc1ccccc1-c1coc2cc(OC(=O)c3ccco3)ccc2c1=O
 : -0.17 | -0.65
COc1ccc(N2Cc3cccc(C(=O)NC(C)CCc4ccco4)c3C2=O)cc1 (stereo not given)
 : 1.7 | 2
CCOC(=O)C1=CN(c2ccc(F)cc2)C=C(C(=O)OCC)C1c1ccc(OC)c(Br)c1
 : 0.55 | nt
CC(C)C(c1ccc(N(C)C)cc1)c1ccc(N(C)C)cc1
 : 0.54 | 0.6
Cn1c(N)c(C(=O)CN(Cc2ccccc2)Cc2ccccc2)c(=O)n(C)c1=O
 : nt | -0.6
CCn1c(SC)nnc1C1CCN(C(=O)N(c2ccccc2)c2ccccc2)CC1
 : nt | -1
CCCC(=O)Nc1ccc(C(=O)N2CCc3ccccc32)cc1
 : 0.45 | 0.15
CN1CCc2c(sc(NC(=O)c3ccc4ncsc4c3)c2C(N)=O)C1
 : 0.005 | -0.7
O=C(NCC1COC2(CCCC2)O1)c1ccccc1 (stereo not given)
 : nt | -0.25
C=CC[C@H]1CC=C[C@H](c2ccccc2)N1
 : 0.91 | 0.7
Cc1ccc(-n2c(C)cc(C(=O)Cn3nc(C)c(C)c(C#N)c3=O)c2C)cc1C
 : nt | 0.65
CC1(C)CC(=O)C2=C(C1)c1c(ccc3ccccc13)NC2c1ccc(O)c(O)c1 (stereo not given)
 : 52 | nt
O=C(CSC1=NC(=O)C(c2ccccc2)C(=O)N1)Nc1ccc(Cl)cn1 (stereo not given)
 : -0.56 | -0.25

Part of the list above in order of SMILES length, low to high.
The line under a structure holds: CapD inh | AID504770
CC(C)CCNC(=S)Nc1ccccn1
 : 0.1 | -1.1
O=C(NCC1COC2(CCCC2)O1)c1ccccc1 (stereo not given)
 : nt | -0.25
CCOC(=O)c1cnn2c1nc(Sc1cccc(OC)c1)c1ccccc12
 : 3.8 | 0.75

Compounds listed so far that contain bromine:
The line under a structure holds: CapD inh | AID504770
CC(=O)N1CCN(S(=O)(=O)c2cccc(C(=O)OCc3cc(=O)n4cc(Br)ccc4n3)c2)CC1
 : nt | 1.3
O=S(=O)(N(c1ccc(Br)cc1)C(F)F)C(F)(F)F
 : nt | -0.55
CCOC(=O)C1=CN(c2ccc(F)cc2)C=C(C(=O)OCC)C1c1ccc(OC)c(Br)c1
 : 0.55 | nt

(further entries)
The line under a structure holds: CapD inh | AID504770
O=C(Oc1ccc2c(c1)OCO2)C1COc2ccccc2O1 (stereo not given)
 : nt | 0.4
CCN(CCOC(=O)N1CCN(c2ccc(C(C)=O)cc2)CC1)c1ccc(N=Nc2ccc([N+](=O)[O-])cc2)cc1
 : -0.67 | nt
CCCSc1nc(C)c(-c2csc(C(C#N)=C3CCCC3)n2)cc1C#N
 : -1.1 | -0.4
N#Cc1ccccc1COC(=O)c1cc[n+]([O-])cc1
 : nt | -0.05
Cc1ccccc1COc1ccc(-c2nn[nH]n2)cc1
 : 0.065 | -1.1
CC(=O)SC(CC(=O)O)c1nc2ccccc2s1 (stereo not given)
 : -5.6* | -0.65
CC(C)NC(=O)c1nc(-c2cccc(C(F)(F)F)c2)no1
 : -0.43 | -0.95
O=S(=O)(NCCc1cccc(Cl)c1)c1c(F)cccc1F
 : -0.79 | nt
C=CCn1cc(F)c(=O)n(CC=C)c1=O
 : nt | -0.45
c1cc(CNCCN2CCOCC2)ccn1
 : 0.21 | 1
C/C(Nc1nc(-c2cc(C)n(CCc3ccccc3)c2C)cs1)=C(/C#N)C(N)=O
 : nt | -0.05
CC(Oc1ccc(-c2ccccc2)c(F)c1)c1ccn(C(=O)c2cccs2)n1 (stereo not given)
 : -0.06 | nt
CC1CCC(=O)C(Sc2nc(C3CC3)cc(-c3cccs3)c2C#N)C1 (stereo not given)
 : nt | 1.4
Cc1n[nH]c(=O)c(N)c1-c1cc(-c2ccc(Cl)c(Cl)c2)n[nH]1
 : 1.1 | 0.15
O=C(CSCc1c(F)cccc1Cl)NC1Cc2ccccc2C1
 : -0.39 | nt
COc1ccc(-c2cc(COc3ccc(Cl)c(Cl)c3)on2)cc1
 : -0.22 | nt
COc1ccccc1N1CCN(S(=O)(=O)c2ccc(F)c(C(=O)Nc3ccc(C(C)C)cc3)c2)CC1
 : -0.92 | nt
O=C(/C=C/c1ccc(Br)cc1)Nn1c(-c2ccccc2F)nc2ccccc2c1=O
 : 0.04 | nt
CN(C)c1ccc(C(O)c2nc3ccccc3n2Cc2ccccc2)cc1 (stereo not given)
 : -0.9 | -0.7
Cc1ccc(NC(=O)Cn2c(=O)oc3cc(S(=O)(=O)N4CCCCCC4)ccc32)cc1F
 : 0.37 | -1.1
O=C(N/N=C/c1cccc(Oc2ccccc2)c1)c1csc(CS(=O)(=O)Cc2ccco2)n1
 : -1.1 | nt
N#C/C(C(=S)Nc1ccccc1)=C1/NN=C2CCCCCN21
 : nt | -0.4
CCNC(=O)CSc1nnc(-c2cccc(C)c2)n1-c1ccc(OCC)cc1
 : nt | -0.1
O=C(c1ccco1)N1CCN(S(=O)(=O)c2c(F)cccc2F)CC1
 : -0.45 | 0.1
COc1cccc(CN2CCC(NC(=O)Cc3ccc4ccccc4c3)C2)c1[N+](=O)[O-] (stereo not given)
 : 0.14 | nt
CCCC[n+]1c(/C=C/C=C2\N(CC)c3ccc(C(=O)OCC)cc3N2CCCS(=O)(=O)[O-])n(CC)c2cc(C(=O)OCC)ccc21
 : 0.27 | nt
CCCN(Cc1nnc(-c2cccs2)o1)C(=O)C1COc2ccccc2O1 (stereo not given)
 : nt | -0.45
O=C(Nc1ccccc1C(=O)Nc1ccccn1)c1ccccc1
 : 0.95 | -0.55
CCc1ccccc1NC(=O)Nc1cccs1
 : 0.18 | -0.6
Cc1cccc2c1cnn2C(=O)Nc1cccc(C(F)(F)F)c1
 : 0.17 | 1.6
CCOC(=O)C1=C(CSc2nc3cc(C(=O)OC)ccc3c(=O)n2Cc2ccco2)NC(=O)NC1
 : nt | 0.25
COC(=O)c1sc(-c2ccc(F)cc2)cc1N
 : 9.3 | nt
C=CCn1c(=O)c(=O)n(C(C)C)c2ccc(C(F)(F)F)cc21
 : -0.16 | nt
O=C(Nc1ccc(F)cc1F)c1cnn(-c2ccccc2)c1C(F)(F)F
 : 0.06 | nt
CSc1nc(C)cc(NC(N)=O)n1
 : 0.14 | 1.1
CC(C(=O)O)N1C(=O)c2cccc3cccc1c23 (stereo not given)
 : -0.95 | -0.05
Cc1cccc(-c2nc(C#N)c(N(C)C)o2)c1
 : 110 | -0.7
O=C(OCCCCc1ccc([N+](=O)[O-])cc1)N1CCC(O)C1 (stereo not given)
 : -0.27 | nt
COC(=O)c1cc(=O)n(-c2cc(Cl)cc(Cl)c2)[nH]1
 : 0.01 | -0.05
COC(=O)c1cccnc1-c1nc2ccccc2s1
 : 2.2 | 0.3
COC(=O)C1=CN(CCCN2CCCC2=O)C=C(C(=O)OC)C1c1ccccc1C(F)(F)F
 : 65 | -0.6
Cc1cc2nc3c(=O)n(C)c(=O)n(C)c3nc2cc1NC(=O)C(F)(F)F
 : -0.94 | 1.4
Cc1cc(C)c(C#N)c(SCCCCN2C(=O)c3ccccc3C2=O)n1
 : nt | -0.9
Cc1ccc(/C(O)=C2\C(=O)C(=O)N(CCN3CCOCC3)C2c2ccccc2)cc1 (stereo not given)
 : -0.33 | nt
C=CCNc1nc(Cl)nc(Nc2ccc(OCC)cc2)n1
 : 0 | -0.15
COC(=O)N1CCN(CCc2ccccc2)CC1
 : 1.1 | -0.55
[O-]c1nn(-c2cccc(Cl)c2)n[n+]1-c1cccc(Cl)c1
 : 3.8 | 1.4
CCC(=O)c1ccc(OCC(=O)N2Cc3ccccc3CC2C(=O)O)cc1 (stereo not given)
 : nt | -0.15
Cc1ccc(CCNC(=O)C2CCN(S(=O)(=O)N3CCCCC3)CC2)cc1
 : 0.31 | 0
Cc1nc2ccc(NC(=O)C3CC3)cc2c(=O)n1Cc1ccc(F)cc1
 : nt | -0.4
CCCCCc1cc(O)c2c(c1)OC(C)(C)c1ccc(C)cc1-2
 : 0.22 | nt
CSc1nnc(Cc2cc(=O)[nH]c(=O)[nH]2)n1-c1ccccc1
 : nt | 0.75
Fc1ccc(Cn2nnc(-c3cccc(C(F)(F)F)c3)n2)cc1Cl
 : -0.35 | 2
O=C(CCCn1c(=S)[nH]c2ccc(Br)cc2c1=O)NCCc1c[nH]c2ccccc12
 : -0.66 | nt
O=C(O)CC(N=C1NS(=O)(=O)c2ccccc21)c1ccc(Cl)cc1 (stereo not given)
 : nt | -0.05
C=CC(=O)NC(C)(C)Cc1ccccc1
 : nt | 0.35
Cc1c(C(=O)NCCCN2CCOCC2)sc2ncnc(N3CCN(c4ccccn4)CC3)c12
 : -0.27 | nt
